High-throughput results (PubChem BioAssay)
rRNA inh HTS: selective bacterial rRNA inhibition in E. coli; E. coli WT GFP vs humanized-ribosome RFP mutants, fluorescence, 24 h; active compounds read low; DMSO median 0, no signal -100; GFP signal change (wild-type ribosome), % (concentration not given with the values); 350,000 compounds, 1.6% hits;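 active = significant combined selectivity score with lowered wild-type GFP, culture density cut under 30%, mutant RFP and density less affected; inactive = any of these conditions unmet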; note: one replicate is shown; some compounds called inactive have numbers as strong as hits
rRNA inh HTS OD600: further read-out of rRNA inh HTS, marked with its call; OD600 change, %; measured here: OD600 growth;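 optical density of the mix in the first replicate; 0 = DMSO median and -100 = no signal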
rRNA inh HTS RFP: further read-out of rRNA inh HTS, marked with its call; RFP signal change, %; measured here: RFP humanized mutant strains;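 first replicate; 0 = DMSO median and -100 = no signal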
* hit, by the source's call; & = joins results of further samples. Only part of the results is shown; count on the stated rates, not on these rows.

| SMILES | rRNA inh HTS | rRNA inh HTS OD600 | rRNA inh HTS RFP |
| --- | --- | --- | --- |
| C[C@@H]1CN([C@H](C)CO)C(=O)c2cccc(NC(=O)Nc3ccc4c(c3)OCO4)c2O[C@H]1CN(C)Cc1ccc2c(c1)OCO2 | -5 | -19 | 5.4 |
| O=C(Nc1ccc(F)c(Cl)c1)c1cc(C2CCCCN2C(=O)CCc2ccccc2)on1 (stereo unspecified) | -8 | -7 | 0.1 |
| CO[C@@H]1CN(C)C(=O)c2ccc(NS(=O)(=O)c3ccccc3)cc2OC[C@@H](C)N(Cc2cccnc2)C[C@@H]1C | 0 | -2 | 3.2 |
| CCC(=O)N(C)C[C@H]1Oc2ncc(C#Cc3cccnc3)cc2C(=O)N([C@@H](C)CO)C[C@H]1C | 0 | 9 | 1.3 |
| O=C(C[C@@H]1C[C@@H]2c3cc(NS(=O)(=O)c4ccc(F)cc4)ccc3O[C@@H]2[C@H](CO)O1)NCc1cccc(F)c1 | 0 | -20 | -1.1 |
| O=C(NC1CCCCC1)C(c1ccccc1F)n1c(=O)c(-c2ccco2)nc2ccccc21 (stereo unspecified) | 1 | -2 | 2.3 |
| COc1ccc(CN(C)C[C@H]2OCCCC[C@H](C)Oc3ccc(NS(=O)(=O)c4ccccc4)cc3C(=O)N([C@H](C)CO)C[C@@H]2C)cc1 | 1 | 2 | 2.3 |
| CC(C)NC(=O)N(C)C[C@H]1OCCCC[C@H](C)Oc2ccc(NC(=O)Nc3cccc4ccccc34)cc2C(=O)N([C@H](C)CO)C[C@@H]1C | 1 | 0 | 0.6 |
| COc1cccc(NC(=O)Nc2ccc3c(c2)C(=O)N(C)C[C@H](OC)[C@@H](C)CN(CC2CC2)[C@@H](C)CO3)c1 | 1 | 3 | 1.1 |
| COc1cccc(CN2[C@H](CO)[C@H]3c4ccccc4N(C(=O)c4ccncc4)C[C@H]32)c1 | 0 | 8 | -1.5 |
| CC(C)NC(=O)N1CC2(C1)[C@@H](c1ccccc1)[C@@H](CO)N2C(=O)C1CCOCC1 | -2 | 7 | -2.2 |
| O=C(Nc1ccc2c(c1)[C@H]1C[C@H](CC(=O)N3CCOCC3)O[C@@H](CO)[C@H]1O2)c1ccc2c(c1)OCO2 | 2 | 0 | 0.0 |
| CC(C)C#Cc1ccc2c(c1)O[C@H](CN(C)C(=O)NC(C)C)[C@H](C)CN([C@H](C)CO)S2(=O)=O | -7 | -2 | 0.9 |
| COc1ccc2c3c([nH]c2c1)[C@H](CO)N(C(=O)c1ccccc1)CC31CN(C(=O)c2cccc(F)c2)C1 | -1 | 5 | -0.6 |
| COc1ccccc1CN1[C@H](CO)[C@@H]2c3ccccc3N(C(=O)C3CC3)C[C@@H]21 | 3 | 0 | 0.2 |
| C[C@@H]1CN([C@@H](C)CO)C(=O)c2cccc(NC(=O)c3cnccn3)c2O[C@H]1CN(C)C | 1 | 3 | 0.6 |
| COc1ccc2c3c(n(C)c2c1)[C@@H](CO)N(C(C)=O)CC31CCN(Cc2ccc(Cl)cc2)CC1 | -2 | -4 | 1.8 |
| C[C@@H]1CN([C@H](C)CO)S(=O)(=O)c2ccc(-c3cncnc3)cc2O[C@H]1CN(C)C(=O)CC1CC1 | -1 | -2 | -4.3 |
| C[C@@H]1CCCCO[C@H](CN(C)Cc2ccccc2)[C@H](C)CN([C@H](C)CO)C(=O)c2cc(NS(C)(=O)=O)ccc2O1 | 2 | 8 | 3.2 |
| N#C[C@@H]1[C@@H](c2ccc(-c3ccccc3F)cc2)[C@H](CO)N1C(=O)Cc1ccccc1 | -25 | -66 | 1.8 |
| O=C(Cc1ccccn1)N1CC(=O)N2[C@H](CO)[C@H](c3ccc(C#CC4CCCC4)cc3)[C@H]2C1 | -5 | -5 | 1.5 |
| Cc1noc(C)c1NC(=O)Nc1ccc2c(c1)C(=O)N([C@H](C)CO)C[C@@H](C)[C@H](CN(C)Cc1ccc(C(=O)O)cc1)O2 | 5 | -1 | -1.2 |
| CC(C)C(=O)Nc1ccc2c(c1)C(=O)N(C)[C@@H]1CC[C@@H](CC(=O)NCc3ccc(F)cc3)O[C@H]1CO2 | 2 | 4 | -0.4 |
| O=C(NCC[C@H]1CC[C@@H](NC(=O)C2CC2)[C@H](CO)O1)c1cc(Cl)cc(Cl)c1 | -1 | 0 | -0.2 |
| CCCNC(=O)Nc1ccc2c(c1)C(=O)N(C)C[C@@H](OC)[C@H](C)CN(C(=O)C1CCCCC1)[C@@H](C)CO2 | 1 | -3 | -0.3 |
| CC(C)NC(=O)Nc1ccc2c(c1)CC(=O)N([C@@H](C)CO)C[C@H](C)[C@H](CN(C)Cc1ccc(Cl)c(Cl)c1)O2 | -14 | -37 | 11 |
| Cc1csc(-c2nc3ccccc3n2C(C)c2nc3ccccc3[nH]2)c1 (stereo unspecified) | -30* | -21* | -10.0* |
| O=C(C[C@@H]1CC[C@H]2[C@@H](COC[C@@H](O)CN2C(=O)Cc2ccccc2)O1)NC1CCC1 | -1 | 14 | -3.1 |
| COc1ccccc1CCn1cnc(-c2ccc(Cl)cc2)c1CC(C)C | -33 | -50 | 7.5 |
| CO[C@H]1CC[C@H]2CCN(C)C(=O)C[C@H](c3ccccc3)CN(C)C(=O)c3cccc(C#N)c3OC[C@H]1O2 | 0 | -3 | -3.7 |
| Cc1cn([C@H]2C[C@H](O)[C@@H](CNS(=O)(=O)N3CCCC3)O2)c(=O)[nH]c1=O | 0 | 12 | 1.5 |
| CC(=O)Nc1ccc2c(c1)C(=O)N(C)[C@H]1CC[C@H](CC(=O)NCCCN3CCOCC3)O[C@H]1CO2 | 2 | 6 | -1.3 |
| Cc1cccc(S(=O)(=O)N2C[C@@H]3[C@H](c4ccccc42)[C@H](CO)N3CC2CCOCC2)c1 | -7 | -4 | 3.5 |
| Cc1ccccc1S(=O)(=O)N1C[C@H](O)COC[C@H]2O[C@H](CC(=O)N3CCC(Cc4ccccc4)CC3)CC[C@@H]21 | -15 | -49 | 2.9 |
| CO[C@@H]1CN(C)C(=O)c2ccc(NC(=O)c3nc4ccccc4s3)cc2OC[C@@H](C)N(Cc2ccncc2)C[C@@H]1C | -25* | -16* | 6.4* |
| CC(C)NC(=O)N1CCCCN2[C@@H](CO)[C@H](c3ccc(C#C[C@@H](C)O)cc3)[C@@H]2C1 | 6 | 13 | 0.1 |
| CC(C)NC(=O)N(C)C[C@H]1Oc2ccc(NS(=O)(=O)c3cn(C)cn3)cc2C(=O)N([C@@H](C)CO)C[C@H]1C | 4 | 16 | -0.2 |
| C[C@@H]1CN([C@@H](C)CO)C(=O)Cc2cc(NC(=O)C3CC3)ccc2O[C@@H]1CN(C)Cc1ccccc1 | -2 | 0 | -2.9 |
| COCC(=O)N1[C@H](C#N)[C@H](c2ccccc2-c2ccccc2F)[C@H]1CO | 1 | -2 | 1.4 |
| O=C(NCc1cccs1)C1Cc2c(-c3ccc(Cl)cc3)ccnc2O1 (stereo unspecified) | -14 | -51 | 0.3 |
| CCOC(=O)C1=CCN(S(=O)(=O)c2ccc(C)cc2)C1c1cccc2ccccc12 (stereo unspecified) | -1 | 8 | 1.8 |
| CCCCCc1c(-c2ccccc2)ncn1CCc1ccccc1OC | -32 | -63 | -12 |
| C[C@@H]1CN([C@H](C)CO)C(=O)Cc2cc(NC(=O)Cn3cnnn3)ccc2O[C@@H]1CN(C)C(=O)Nc1ccc2c(c1)OCO2 | 4 | -2 | -1.7 |
| C[C@@H]1CN([C@H](C)CO)C(=O)c2cc(NS(=O)(=O)c3ccc(Cl)cc3)ccc2O[C@H]1CN(C)CC1CCCCC1 | 0 | -1 | -2.1 |
| O=C(C[C@H]1CC[C@H]2[C@@H](COC[C@@H](O)CN2S(=O)(=O)c2cccc(Cl)c2)O1)N1CCOCC1 | 1 | -1 | -4.4 |
| C[C@@H]1CN([C@@H](C)CO)C(=O)c2cc(NC(=O)CCN3CCOCC3)ccc2O[C@@H]1CN(C)C(=O)Nc1ccc2c(c1)OCO2 | 1 | 6 | -0.9 |
| CCC(=O)N1[C@H](CO)[C@@H](c2ccccc2)C12CN(C(=O)Nc1ccccc1F)C2 | -3 | 8 | -0.2 |
| Cc1cccc(S(=O)(=O)N(C)C[C@@H]2OCc3ccccc3-c3ccccc3C(=O)N([C@H](C)CO)C[C@H]2C)c1 | 3 | 4 | -2.7 |
| O=C(Cc1ccccc1)N1CC[C@@H]2[C@H](CO)Nc3ccc(C4=CCCCC4)cc3[C@@H]21 | -12 | -36 | -5.9 |
| CNC[C@H]1Oc2ncc(C#CC3CCCCC3)cc2C(=O)N([C@H](C)CO)C[C@H]1C | 4 | 8 | 2.0 |
| CN(C)C(=O)c1ccc(-c2ccc(C3[C@H]4CNC[C@@H]3N4C(=O)Nc3cc(F)ccc3F)cc2)cc1 (stereo partly specified) | 6 | 9 | 4.2 |
| C[C@H]1CN([C@@H](C)CO)C(=O)Cc2cc(NC(=O)Nc3ccc(F)cc3)ccc2O[C@@H]1CN(C)S(=O)(=O)c1cccs1 | -4 | -10 | 2.5 |
| C[C@@H]1CN([C@H](C)CO)C(=O)Cc2cc(NC(=O)Nc3ccc(C(F)(F)F)cc3)ccc2O[C@H]1CN(C)S(=O)(=O)c1ccccc1 | 4 | 5 | 1.6 |
| C[C@H]1CN([C@@H](C)CO)S(=O)(=O)c2ccc(C#Cc3ccccn3)cc2O[C@H]1CN(C)Cc1ccc(F)cc1 | -8&-5 | -2&-1 | 9.1&8.2 |
| CCC(=O)N(C)C[C@@H]1Oc2ncc(C#CCc3ccccc3)cc2C(=O)N([C@H](C)CO)C[C@H]1C | 5 | 5 | 1.3 |
| O=C(C[C@H]1CC[C@H]2[C@@H](COC[C@@H](O)CN2Cc2ccccc2F)O1)N[C@H]1CCN(Cc2ccccc2)C1 | 0 | -16 | 2.8 |
| C[C@@H]1CN([C@@H](C)CO)C(=O)c2cc(C#CC3CCCCC3)cnc2O[C@H]1CN(C)S(=O)(=O)c1ccccc1 | -1 | -3 | 0.7 |
| CN1c2ccc(C#Cc3cccnc3)cc2[C@@H]2[C@@H](CCN2C(=O)C2CCC2)[C@@H]1CO | -5 | 14 | -5.0 |
| C[C@@H]1CCCCO[C@H](CN(C)S(=O)(=O)c2ccccc2)[C@@H](C)CN([C@H](C)CO)C(=O)c2cc(NS(=O)(=O)c3ccc(F)cc3)ccc2O1 | 1 | 0 | -0.5 |
| COC(=O)C[C@H]1C[C@@H]2c3cc(NC(=O)NC4CCCC4)ccc3O[C@@H]2[C@@H](CO)O1 | -7&-3 | 13&3 | -1.0&0.2 |

(list continues)
| SMILES | rRNA inh HTS | rRNA inh HTS OD600 | rRNA inh HTS RFP |
| --- | --- | --- | --- |
| O=C(C[C@H]1CC[C@@H](NC(=O)Nc2ccc3c(c2)OCO3)[C@H](CO)O1)NCc1ccc(F)cc1 | -1 | 3 | 2.0 |
| C[C@H]1CN([C@@H](C)CO)S(=O)(=O)c2ccc(C#CCN(C)C)cc2O[C@@H]1CN(C)C(=O)C1CCCCC1 | 2 | 3 | -3.8 |
| Cc1noc(C)c1S(=O)(=O)Nc1ccc2c(c1)C(=O)N([C@H](C)CO)C[C@H](C)[C@H](CN(C)C(=O)c1ccccc1)OCCCC[C@H](C)O2 | -3 | -3 | 2.6 |
| O=C(NCc1ccccc1)[C@H]1[C@H](CO)[C@H]2Cn3c(ccc(/C=C/c4ccccc4)c3=O)[C@@H]1N2CC1CC1 | -12 | -40 | 0.7 |
| COc1ccc(CN(C)C[C@H]2Oc3c(NC(=O)NC4CCCCC4)cccc3C(=O)N([C@H](C)CO)C[C@H]2C)cc1 | 3 | 8 | -1.7 |
| C[C@@H]1CN([C@@H](C)CO)C(=O)c2cccc(NS(=O)(=O)c3cn(C)cn3)c2O[C@@H]1CN(C)S(=O)(=O)c1ccc(F)cc1 | 0 | 1 | -1.4 |
| Cc1ccc(S(=O)(=O)N[C@@H]2CC[C@H](CC(=O)NCCCN(C)C)O[C@H]2CO)cc1 | 5 | -5 | -0.4 |
| C[C@H](CO)N1C[C@H](C)[C@H](CN(C)Cc2ccc3c(c2)OCO3)Oc2ccc(NC(=O)Nc3ccccc3)cc2CC1=O | 0 | -10 | 8.2 |
| C[C@@H]1CN([C@H](C)CO)C(=O)c2cc(NC(=O)CCCN(C)C)ccc2O[C@H]1CN(C)S(=O)(=O)c1ccc(F)cc1 | 2 | 1 | -3.5 |
| CCOc1ccc(Cl)cc1-c1cc(C(=O)NCc2cccc(C(F)(F)F)c2)[nH]n1 | -13 | -18 | 5.1 |
| O=C(C[C@@H]1CC[C@@H]2[C@H](COC[C@H](O)CN2C(=O)Nc2cccc(Cl)c2)O1)NCC1CCCCC1 | -55 | -76 | -8.2 |
| C[C@H](CO)N1C[C@H](C)[C@H](CN(C)S(=O)(=O)CC(F)(F)F)OCc2ccccc2-c2ccccc2C1=O | -2 | -5 | -4.6 |
| O=C(Nc1nccs1)[C@H]1[C@H](CO)[C@H]2Cn3c(ccc(-c4ccncc4)c3=O)[C@H]2N1CC1CCCC1 | -4 | -12 | 5.6 |
| COc1cccc(-c2ccc3c(c2)[C@H]2[C@H](CCN2C(=O)Cc2ccncc2)[C@H](CO)N3)c1 | 5 | 1 | -3.0 |
| C[C@@H]1CCCCO[C@@H](CN(C)C(=O)NC2CCCCC2)[C@H](C)CN([C@H](C)CO)C(=O)c2cc(NC(=O)Nc3cccc4ccccc34)ccc2O1 | -2 | -2 | 0.7 |
